YjeE inh: displaces an ADP probe from E. coli YjeE (TsaE) | P0AF67 | purified YjeE, fluorescence polarisation of a bound ADP probe | Potency, µM | 71,000 tested, 0.05% active | AID 605; active = well fitted falling curve; inconclusive = weaker or top-dose-only fall, or a rising curve; inactive = flat or poorly fitted curve;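 note: top concentration of the series not given in the record; excess ADP was the control for the full effect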
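Purified YjeE (10 uM) with BODIPY Texas Red-labeled ADP probe (2 uM); compounds pin-transferred, 15 min at room temperature. Binding inhibition read as decreased fluorescence polarization; ADP titration as control.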
PK Bst: alters activity of Bacillus stearothermophilus pyruvate kinase. partly purified Bacillus stearothermophilus pyruvate kinase, luminescence ATP production; ribose 5-phosphate activator present at AC10. Potency, µM. 51,000 tested, 1.2% active; in the data active means potency below about 11 µM; inconclusive means mostly about 12 µM to 25 µM; inactive means weaker than that;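 the screen sought inhibitors and activators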;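 note: potency is the fitted concentration of half-maximal effect; scaled between full activation by ribose 5 phosphate and full inhibition by luteolin; about four in five hits inhibit and the cells do not say which; series up to 57 µM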
* = called active by the depositor; i = inactive; ? = inconclusive; . = not tested or not shown. Some of the compounds tested; count on the stated rates, not on these rows.

Preview, 17 compounds:
SMILES | YjeE inh | PK Bst
COc1ccc2[nH]c(C)c(C(=O)CN3CC(C)OC(C)C3)c2c1 (centres undefined) | . | >26
O=C(c1cccc(Cl)c1Cl)N1CCN(c2ccccn2)CC1 | i | i
COCCn1nnnc1CN1CCC(NC(=O)c2ccc(Br)cc2)CC1 | i | >57
CC(=O)C1=C(O)C(=O)N(CC(=O)O)C1c1ccccc1Cl (centres undefined) | i | .
CC1CCN(c2nc(-c3ccccc3)c(C#N)c(=O)[nH]2)CC1 | i | >57
O=C(Cn1cnc2c(cnn2-c2ccccc2)c1=O)N1CCOCC1 | i | .
O=C(COC(=O)CN1C(=O)C2CC=CCC2C1=O)Nc1cc(C(F)(F)F)ccc1N1CCOCC1 (centres undefined) | i | >57
Cc1ccc2cc(CN(CC3CCCO3)S(=O)(=O)c3cccc4nsnc34)c(=O)[nH]c2c1 (centres undefined) | i | >57
COc1ccc(-n2ccnc2SCC(=O)Nc2ccccc2)cc1 | i | >57
CCSc1nnc(NC(=O)c2ccc(C)o2)s1 | i | >57
CS(=O)(=O)c1ccc2nc(NC(=O)Cc3ccccc3)sc2c1 | ? | .
CC(C(=O)NCc1ccco1)n1nc(-c2ccccc2)c2cc(Cl)ccc21 (centres undefined) | i | .
COC(=O)c1ccccc1NC(=O)C1CCN(C(=O)c2cc(OC)cc(OC)c2)CC1 | i | >57
COc1cccc(N2C(=O)C3ON(c4ccccc4)C(c4cccs4)C3C2=O)c1 (centres undefined) | i | .
CC(C)N1CCc2c(sc(N)c2C#N)C1 | . | >26
COc1ccc2c(c1)CC(C1(O)C(=O)N(C)c3ccccc31)C2=O (centres undefined) | i | .
CC(C)c1cc(C(=O)Nc2cccnc2)no1 | i | .

Results, from the first entry:
SMILES | YjeE inh | PK Bst
COc1ccc2[nH]c(C)c(C(=O)CN3CC(C)OC(C)C3)c2c1 (centres undefined) | . | >26
O=C(c1cccc(Cl)c1Cl)N1CCN(c2ccccn2)CC1 | i | i
COCCn1nnnc1CN1CCC(NC(=O)c2ccc(Br)cc2)CC1 | i | >57
CC(=O)C1=C(O)C(=O)N(CC(=O)O)C1c1ccccc1Cl (centres undefined) | i | .
CC1CCN(c2nc(-c3ccccc3)c(C#N)c(=O)[nH]2)CC1 | i | >57
O=C(Cn1cnc2c(cnn2-c2ccccc2)c1=O)N1CCOCC1 | i | .
O=C(COC(=O)CN1C(=O)C2CC=CCC2C1=O)Nc1cc(C(F)(F)F)ccc1N1CCOCC1 (centres undefined) | i | >57
Cc1ccc2cc(CN(CC3CCCO3)S(=O)(=O)c3cccc4nsnc34)c(=O)[nH]c2c1 (centres undefined) | i | >57
COc1ccc(-n2ccnc2SCC(=O)Nc2ccccc2)cc1 | i | >57
CCSc1nnc(NC(=O)c2ccc(C)o2)s1 | i | >57
CS(=O)(=O)c1ccc2nc(NC(=O)Cc3ccccc3)sc2c1 | ? | .
CC(C(=O)NCc1ccco1)n1nc(-c2ccccc2)c2cc(Cl)ccc21 (centres undefined) | i | .
COC(=O)c1ccccc1NC(=O)C1CCN(C(=O)c2cc(OC)cc(OC)c2)CC1 | i | >57
COc1cccc(N2C(=O)C3ON(c4ccccc4)C(c4cccs4)C3C2=O)c1 (centres undefined) | i | .
CC(C)N1CCc2c(sc(N)c2C#N)C1 | . | >26
COc1ccc2c(c1)CC(C1(O)C(=O)N(C)c3ccccc31)C2=O (centres undefined) | i | .
CC(C)c1cc(C(=O)Nc2cccnc2)no1 | i | .
COc1ccc(S(=O)(=O)N(C)C2CCN(C)CC2)cc1 | i | .
CC(C)Oc1cccc(C(=O)Nc2ccccc2N2CCOCC2)c1 | i | >57
COc1ccc(-n2nnnc2SCC(=O)c2ccc(OC)c(OC)c2)cc1 | i | >57
CCCCC(=O)N1CC2(C)CN(C(=O)CCCC)CC(C)(C1)C2=O | i | >57
Cc1cc2cc3c(=O)[nH]c(=O)[nH]c3nc2cc1C | i | .
COc1ccc(OC)c(C(=O)CSc2nc3ncccc3[nH]2)c1 | i | >57
O=C(Nc1nccs1)c1ccc(S(=O)(=O)c2ccccc2)cc1 | i | >57
O=C(NC1CS(=O)(=O)CC1NCc1ccco1)c1ccccc1 (centres undefined) | i | >57
CCOC(=O)c1cc2c(ccn2-c2ccc(F)cc2)n1CC(=O)N1CCN(C(=O)c2ccco2)CC1 | i | >57
CC1=CC(C)(C)N(C(=O)CN2C(=O)c3ccccc3C2=O)c2ccccc21 | i | .
CCCCCn1c(Sc2nc3ccccc3s2)nc2c1c(=O)[nH]c(=O)n2C | i | >57
CN(CCO)C(=O)c1cccc2c1-c1ccccc1C2=O | i | >57
CN(CC(=O)NCCN1CCN(Cc2ccccc2)CC1)S(=O)(=O)c1cccc2nsnc12 | i | >57
CCCCOc1ccc(S(=O)(=O)Nc2cc(OC)ccc2OC)cc1 | i | .
CC(C)(C)c1ccc(S(=O)(=O)NCCOCC(F)(F)C(F)F)cc1 | i | >57
Cc1nc2ccccc2c(=O)n1C1CCCCCC1 | i | >57
Nc1ccc2ncccc2c1N | . | i
CC(C)CCCNc1nc(N2CCOCC2)nc(N2CCOCC2)n1 | i | .
CN1CCC(N(C)CC(=O)Nc2cccc(Oc3ccccc3)c2)CC1 | i | >57
O=C(CSc1nnc(Nc2ccccc2)s1)NCc1ccco1 | i | >57
CC1CC(C)CN(S(=O)(=O)c2ccc(C(=O)NCCCn3ccnc3)cc2)C1 (centres undefined) | i | >57
C=CCN1C(=O)C(O)(CC(=O)c2ccc(Cl)cc2)c2ccccc21 (centres undefined) | i | .
CN1CCN(c2ncc3nc(-c4cc(F)cc(F)c4)c(=O)n(Cc4cccs4)c3n2)CC1 | i | .
N[C@@H](Cc1ccnnc1)C(=O)O | i | .
CC(=O)N1CCC2(CC1)CCN(C(c1ccccc1)c1ccccc1)CC2 | i | .
Cc1cc(C(=O)N(C)CC(=O)Nc2ccccc2C(F)(F)F)c(C)o1 | i | >57
Cc1cc(C(=O)COc2ncnc3sccc23)c(C)n1C | i | >57
c1nc(NCCN2CCOCC2)c2cc(-c3ccc4c(c3)OCO4)ccc2n1 | i | .
CCC(c1nnnn1CCc1ccccc1)N(Cc1ccco1)Cc1cc2c(C)ccc(C)c2[nH]c1=O (centres undefined) | i | >57
O=S(=O)(c1ccc2ccccc2c1)N1CCCCC1 | i | .
COc1ccc(-c2nc3cnc(N4CCNCC4)nc3n(C3CC3)c2=O)cc1 | i | .
Cn1c(SCC(=O)OC2CCCCC2)nnc1-c1ccc(S(=O)(=O)N2CCCC2)cc1 | i | >57
Cc1cc(CNC(=O)Nc2ccc3c(c2)OCO3)nn1C | i | >57
CC1CCN(CCCNC(=O)CN2CCN(Cc3ccc(Cl)cc3)C2=O)CC1 | i | .
O=C(Nc1ccccc1)c1cccnc1N1CCOCC1 | i | >57
CCN(Cc1cc2ccccc2[nH]c1=O)S(=O)(=O)c1ccccc1 | i | >57
CCOC(=O)N1CCN(C(=O)c2csc3c2CCCCC3)CC1 | i | >57
CC(=O)NCCc1csc(-c2ccccc2)n1 | i | >57
CCOc1nc(C#N)nc(N2CCCCC2)n1 | i | >57
Cc1cccc(Cn2c(=O)c3c(nc4n3CCCN4Cc3ccccc3)n(C)c2=O)c1 | i | >57
O=C(NCCCNC1CCCCC1)c1ccc(/C=N/O)nc1 | i | >57
COCCNC(=O)Cn1ncc2ccsc2c1=O | i | .
Cc1ccccc1C(=O)Nc1c(C(=O)N2CCCC2)cnn1-c1ccccc1 | i | >57

More entries
SMILES | YjeE inh | PK Bst
CCOc1ccc(C2C(C#N)=C(N)Oc3cc(C)n(CCN(C)C)c(=O)c32)cc1OCC (centres undefined) | i | >57
CC(C)OC(=O)C(C#N)c1nc2ccccc2nc1N1CCCC1 (centres undefined) | . | >26
O=C(CSc1nnc(-c2ccc(Cl)cc2)n1Cc1ccco1)Nc1ccc2c(c1)OCCO2 | i | >57
COc1ccc(-c2nnn(CC(=O)N(Cc3cccs3)C(C)C(=O)NC3CCCC3)n2)cc1OC (centres undefined) | i | >57
CC1CCN(S(=O)(=O)c2cc(Br)cc(C(=O)NC3=NCCS3)c2)CC1 | i | >57
N#CCSc1nnc(C2CCCCC2)n1-c1ccccc1 | i | >57
O=C1c2ccccc2-c2ccc(N(Cc3ccc(Br)cc3)Cc3ccc(Br)cc3)cc21 | i | .
CSc1nc2nc(C)cc(-c3ccccc3)n2n1 | i | >57
Cc1ccc(NC(=O)NC(=O)CN2C(=O)NC3(CCCCCCC3)C2=O)c(C)c1 | i | >57
CCn1c(CNc2ccc(Cl)cc2)nnc1SCC(=O)NCc1ccccc1 | i | >57
Cc1nn2c(-c3cccc(NC(=O)CN4CCOCC4)c3)nnc2c2ccccc12 | i | .
Cn1c(C(=O)N2CCc3ccccc3C2)cc2c(=O)n3ccccc3nc21 | i | >57
CC1(C(=O)N(CC(=O)NC2CCCC2)C2CCCC2)CC(=O)N=C2C=CC=CN21 (centres undefined) | i | >57
CCN1/C(=C\C(C)=O)Sc2ccc(OC)cc21 | i | .
O=C(O)CN1C(=O)c2cccc(Oc3ccc(Cl)cc3)c2C1=O | i | >57
OC1C=CSc2nc3ccccc3n21 (centres undefined) | i | >57
C[C@@H](C(=O)Nc1ccc2ccccc2c1)[C@@H]1C[C@@]1(C)[C@@H](NC(=O)Oc1ccc(F)cc1)c1ccccc1 | i | .
Cn1c(Cn2nnc3ccccc32)nnc1SCC(=O)c1ccc(F)cc1 | i | >57
Cc1ccccc1-c1noc(N)c1C#N | i | >57
CCCn1c(C)nc2c(NCCCCN3CCCC3)nc(C)nc21 | i | .
Oc1c(C(c2cccc(F)c2)N2CCN(Cc3ccccc3)CC2)sc2ncnn12 (centres undefined) | i | .
NC(=O)c1c(NC(=O)CN2C(=O)CCC2=O)sc2c1CCCCC2 | i | .
N#Cc1nc(COc2ccc(Br)cc2)oc1NCCN1CCOCC1 | . | >11
COC(=O)CSc1nc2c(c(-c3ccc(C)o3)c1C#N)CCCC2 | i | >57
Oc1ccc(N2CCN(C(c3ccncc3)c3nnnn3C3CCCC3)CC2)cc1 (centres undefined) | i | >57
COc1cc2c(cc1OC)C(C(=O)N1CCOCC1)C(c1cccs1)N(C)C2=O (centres undefined) | i | >57
Cc1ccc(C(c2nnnn2Cc2cccs2)N2CCN(Cc3ccc4c(c3)OCO4)CC2)cc1 (centres undefined) | i | >57
CCCc1nnc(SCC(=O)N2CCOCC2)n1CCCOC | i | >57
COc1cccc2[nH]c3c(N4CCC(C(N)=O)CC4)ncnc3c12 | i | .
COc1cc(C(=O)Oc2c(CN3CCOCC3)cc(Cl)c3cccnc23)cc(OC)c1OC | i | .
COc1ccccc1NC(=O)CNC(=O)c1ccc(F)cc1 | i | >57
COCCn1c(=O)c(-c2ccccc2)nc2cnc(N3CCNCC3)nc21 | i | .
O=C(Nc1ccccc1C(=O)N1CCOCC1)c1ccncc1 | i | .
CCOC(=O)C1=C(N)N(c2ccc(N3CCCCC3)cc2)C(=O)C1 | i | >57
CCOc1cccc(-c2nn3c(-c4ccccn4)nnc3s2)c1 | . | i
Cc1ccc(C)c(-n2c(SCC(N)=O)nnc2-c2ccccn2)c1 | i | >57
COc1ccc(C)cc1NC(=O)C1CCCN1S(=O)(=O)c1ccc2c(c1)CCC(=O)N2 (centres undefined) | i | .
c1ccc(CN2C3=NCCCN3c3ccccc32)cc1 | i | >57
COc1cccc(C2=NOC(C(=O)NCc3ccccc3)C2)c1 (centres undefined) | i | >57
Cc1cccc(NC(=O)C2CCN(S(=O)(=O)c3cccs3)CC2)n1 | i | >57
Cn1c(SCc2ccc(F)cc2)nnc1-c1cccs1 | i | >57
CCOc1ccc(OCC)c(NC(=O)CN2CCN(c3cccc(C)c3)CC2)c1 | i | >57
O=[N+]([O-])c1ccc2c(N=Nc3ccc4ccccc4c3O)c(O)cc(S(=O)(=O)O)c2c1 | 7.9µM* | .
CC(C)(C)Nc1nc(C(N)=O)nc(N2CCOCC2)n1 | i | >57
CC(C)(c1cc(Br)c(OCC(Br)CBr)c(Br)c1)c1cc(Br)c(OCC(Br)CBr)c(Br)c1 (centres undefined) | i | .
COc1cccc(N(C(=O)Cn2nnc3ccccc32)C(C(=O)NCc2ccco2)c2cccnc2)c1 (centres undefined) | i | >57
CCN=C1SC(C(=O)Nc2ccc(Cl)c(Cl)c2)CC(=O)N1CC (centres undefined) | . | >26
CCN(CC)S(=O)(=O)c1ccc2c(c1)c(=O)c(C(=O)NCCOC)cn2C | i | >57
Cc1coc(C)c1C(=O)CC1(O)C(=O)N(CCc2ccccc2)c2ccccc21 (centres undefined) | i | ?
CCNc1nc(NC(C)C)nc(NS(=O)(=O)c2ccc(Cl)cc2)n1 | i | >57
c1ccc2c(c1)nnn2Cc1nnc2sc(-c3ccc4c(c3)OCCO4)nn12 | i | >57
Cn1c(=O)c2cn(Cc3ccc(Cl)cc3)cc2n(C)c1=O | i | >57
COc1ccc(CNC(=O)CSc2ncnc3nc[nH]c23)cc1 | i | >57
COCCn1c(COc2ccc(Cl)cc2)nnc1SCC(N)=O | i | >57
CCC(Sc1nncn1C)C(=O)Nc1nnc(-c2ccc(Cl)cc2)s1 (centres undefined) | i | .
O=C(NC1CCCCC1)c1ccc(Cn2cc(Br)cn2)o1 | i | >57
Cc1ccccc1 | i | .
O=c1c2ccccc2nnn1CSc1nnc(Nc2ccccc2)s1 | i | >57
CCCNC(=O)c1cc(SC)ccc1Cl | i | >57
Cc1ccc(C)c(NC(=O)CN(C)S(=O)(=O)c2ccc(F)cc2)c1 | i | >57
Cc1ccnc(SCCn2c(N3CCC(C)CC3)nc3c2c(=O)n(C)c(=O)n3C)n1 | i | >57
Cc1[nH]c2ccc(F)cc2c(=O)c1SC(F)(F)C(F)F | i | >57
CCCn1c(=O)c(C(=O)NCc2cccnc2)c(O)c2ccccc21 | i | .
